Compound activity as filed in PubChem.
VCAM-1 imaging: inhibitors of TNFa-induced VCAM-1 surface display, imaging, high-content imaging, pooled HUVEC, TNFa stimulus (AID 456). HUVEC TNFa-induced VCAM-1 surface expression, immunofluorescence imaging; numbers were filed only for top-ranked candidate wells. inhibition, % at 5 µM, or IC50 in µM where a hit was titrated. 10,000 compounds, 0.2% hits;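 active = top tenth filtered wells with inhibition above zero that passed visual or statistical confirmation; inactive = the rest, including hits rejected on review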;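 note: 0% = stimulated vehicle wells and 100% = unstimulated cells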
FPRL1 binder: ligands of human FPRL1, also counter-screen for FPR ligands. P25090. FPRL1-expressing cells, fluorescent ligand binding inhibition, flow cytometry. inhibition, %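 (tested at 6.7 µM)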. 24,000 compounds, 0.3% hits. AID 441;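 note: 0% = buffer alone and 100% = receptor blocker peptide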
Target sequence (P25090 whole entry, looked up): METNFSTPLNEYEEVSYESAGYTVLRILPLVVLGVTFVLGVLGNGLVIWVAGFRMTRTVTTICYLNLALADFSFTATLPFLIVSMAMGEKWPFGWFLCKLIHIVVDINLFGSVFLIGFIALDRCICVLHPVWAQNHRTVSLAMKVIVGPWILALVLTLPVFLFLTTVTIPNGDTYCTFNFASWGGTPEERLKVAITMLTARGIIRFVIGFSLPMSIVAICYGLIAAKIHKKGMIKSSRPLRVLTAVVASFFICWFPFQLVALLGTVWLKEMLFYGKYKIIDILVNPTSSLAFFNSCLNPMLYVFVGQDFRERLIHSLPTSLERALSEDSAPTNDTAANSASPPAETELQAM
VCAM-1 down: suppression of endothelial VCAM-1 upregulation – cell-based, plate reader, pooled HUVEC, TNFa stimulus (AID 454); HUVEC TNFa-induced VCAM-1 surface immunofluorescence, plate reader; numbers were filed only for top-ranked candidate wells; 10,000 compounds, 0.2% hits; inhibition, % at 5 µM;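 active = compound among top-ranked inhibitors of TNF-induced VCAM-1 adhesion protein staining, with the hit upheld by image or statistical review; inactive = the rest, including hits rejected on review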;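 note: 0% = TNFa with vehicle and 100% = cells without TNFa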
VCAM-1 up imaging: boosters of cytokine-driven VCAM-1 levels – imaging, high-content imaging, pooled HUVEC, TNFa stimulus (AID 457) | Pooled HUVEC, TNFa-induced VCAM-1 immunofluorescence imaging; hits of this screen are not shown here | calls only | 10,000 compounds, 0.2% hits;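 active = a top-ranked rise in VCAM-1 staining upheld on image or statistical review; inactive = the rest, including candidates rejected on review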;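 note: compounds tested at 5 µM in the well; cells exposed to compound for 24 hours before fixing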
FPR ligand: ligands of human FPR, also counter-screen for FPRL1 ligands. FPR-expressing cells, fluorescent ligand binding, flow cytometry. inhibition, %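 (tested at 6.7 µM)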. 24,000 compounds, 0.74% hits. AID 440;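 note: 0% = buffer wells and 100% = receptor blocker peptide wells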
Target sequence (P21462 whole entry, looked up): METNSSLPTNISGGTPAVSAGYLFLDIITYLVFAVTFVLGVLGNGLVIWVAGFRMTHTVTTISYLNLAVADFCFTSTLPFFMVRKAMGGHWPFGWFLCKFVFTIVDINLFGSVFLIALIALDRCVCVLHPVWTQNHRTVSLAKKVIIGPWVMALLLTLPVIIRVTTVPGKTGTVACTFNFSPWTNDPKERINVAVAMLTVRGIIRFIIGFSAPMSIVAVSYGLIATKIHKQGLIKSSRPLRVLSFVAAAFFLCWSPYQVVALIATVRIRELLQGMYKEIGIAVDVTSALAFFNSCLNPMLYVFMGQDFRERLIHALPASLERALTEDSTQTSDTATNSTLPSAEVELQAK
Numbers without * were called inactive.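 Rule for the calls, unless noted: active = mean above 30%; inconclusive = self-fluorescent; inactive = the rest.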 This is a subset. The share of hits here may be higher or lower than overall.

For Cc1cccc(N2C(=O)CC(N3CCN(C(=O)c4ccccc4)CC3)C2=O)c1 (configuration not stated) the results were VCAM-1 imaging inactive, FPRL1 binder -2, VCAM-1 down inactive, VCAM-1 up imaging inactive and FPR ligand 1.
For COc1ccc(C2C(C(C)=O)=C(C)N=c3s/c(=C/c4ccc5c(c4)OCO5)c(=O)n32)cc1 (configuration not stated) the results were VCAM-1 imaging inactive, FPRL1 binder -3, VCAM-1 down inactive, VCAM-1 up imaging inactive and FPR ligand -2.
For C=CCn1cc(C(=O)N2CCN(C)CC2)c(=O)c2cc(S(=O)(=O)N3CCCC3)ccc21 the results were FPRL1 binder 7 and FPR ligand -8.
For CCOC(=O)c1oc2ccccc2c1CSc1nnnn1-c1ccc(C)cc1 the results were VCAM-1 imaging inactive, FPRL1 binder 5, VCAM-1 down inactive, VCAM-1 up imaging inactive and FPR ligand 0.
COc1ccc(OC)c(NC(=O)c2cn(C)c(=O)c3cc(OC)c(OC)cc23)c1 was read as VCAM-1 imaging inactive, FPRL1 binder 6, VCAM-1 down inactive, VCAM-1 up imaging inactive and FPR ligand 2.
COc1cc(C)nc(OCCNC(=O)COc2ccc(Cl)cc2C)n1 was read as VCAM-1 imaging inactive, FPRL1 binder 3, VCAM-1 down inactive, VCAM-1 up imaging inactive and FPR ligand -10.
For CNC(=O)NCCN1CCCC1=O the results were VCAM-1 imaging inactive, FPRL1 binder 4, VCAM-1 down inactive, VCAM-1 up imaging inactive and FPR ligand 16.
For CCCCn1c2c(c3ccccc31)CCc1nonc1-2 the results were VCAM-1 imaging inactive, FPRL1 binder 0, VCAM-1 down inactive, VCAM-1 up imaging inactive and FPR ligand -8.
O=C(O)Cn1cc2c(n1)CCCCC2 was read as FPRL1 binder 2 and FPR ligand 3.
Screening COc1ccc(S(=O)(=O)n2ccnc2)c2cccnc12 returned VCAM-1 imaging inactive, FPRL1 binder 4, VCAM-1 down inactive, VCAM-1 up imaging inactive and FPR ligand -6.
Screening CCCNC(=O)c1cc(-c2ccco2)on1 returned VCAM-1 imaging 72%, FPRL1 binder -2, VCAM-1 down inactive, VCAM-1 up imaging inactive and FPR ligand 7.
`O=C(c1cnn2ccccc12)N1CCCc2ccccc21` gave FPRL1 binder 2 and FPR ligand 8.
`NCCN1CCN(CCN)CC1` gave VCAM-1 imaging inactive, FPRL1 binder -2, VCAM-1 down inactive, VCAM-1 up imaging inactive and FPR ligand -1.
CCN1C(=O)/C(=C2/Sc3ccccc3N2CCCS(=O)(=O)O)SC1=S was read as FPRL1 binder 6 and FPR ligand 7.
Cc1csc2nc3ccccc3c(=O)n12 was read as VCAM-1 imaging inactive, FPRL1 binder 7, VCAM-1 down inactive, VCAM-1 up imaging inactive and FPR ligand 6.
For CC1CCN(C(=O)C2CCC(CNS(=O)(=O)c3cccc4cccnc34)CC2)CC1 (configuration not stated) the results were FPRL1 binder 2 and FPR ligand 2.
For COc1ccc(N(C)C(=O)CCS(=O)(=O)c2cccc3nonc23)cc1 the results were VCAM-1 imaging inactive, FPRL1 binder -3, VCAM-1 down inactive, VCAM-1 up imaging inactive and FPR ligand 2.
O=C1c2ccccc2C(Nc2ccc(F)c(Cl)c2)N1c1ccccn1 (configuration not stated) was read as FPRL1 binder 9 and FPR ligand 0.
For c1c2c(cc3sc(N4CCCCC4)nc13)OCO2 the results were FPRL1 binder -5 and FPR ligand 8.
`CCCn1c(=O)[nH]c(=O)c2[nH]cnc21` gave VCAM-1 imaging inactive, FPRL1 binder -6, VCAM-1 down inactive, VCAM-1 up imaging inactive and FPR ligand 1.
Screening COCCn1c(-c2ccc(OC)c(OC)c2)nc2ccccc21 returned VCAM-1 imaging inactive, FPRL1 binder -3, VCAM-1 down inactive, VCAM-1 up imaging inactive and FPR ligand -14.
CC(C)c1nnc(NC(=O)c2cnccn2)s1 was read as VCAM-1 imaging inactive, FPRL1 binder 8, VCAM-1 down inactive, VCAM-1 up imaging inactive and FPR ligand 9.
For CCOC(=O)N1CCN(C(=O)C2CCCN(Cc3nc(-c4ccc(Cl)cc4)oc3C)C2)CC1 (configuration not stated) the results were FPRL1 binder 3 and FPR ligand 16.
For Cc1nc2nc(C)c(CCC(=O)NCCCN3CCN(c4cccc(Cl)c4)CC3)c(C)n2n1 the results were FPRL1 binder 1 and FPR ligand -1.
For CN1CCN(c2nc3c(c(=O)[nH]c(=O)n3C)n2CCOc2ccccc2)CC1 the results were VCAM-1 imaging inactive, FPRL1 binder 7, VCAM-1 down inactive, VCAM-1 up imaging inactive and FPR ligand 1.
For CC(=O)Nc1nonc1NC(=O)CSC1=NCCS1 the results were FPRL1 binder -2 and FPR ligand 0.
Cc1ccccc1NC(=O)C1CCC(C)(C(=O)O)C1(C)C (configuration not stated) was read as VCAM-1 imaging inactive, FPRL1 binder 2, VCAM-1 down inactive, VCAM-1 up imaging inactive and FPR ligand -3.
For CCOc1ccc(NC(=O)CCn2cccc2)cc1 the results were FPRL1 binder 1 and FPR ligand 1.
For COC(=O)CSc1nc(C)cc(Oc2ccccc2)n1 the results were FPRL1 binder 2 and FPR ligand 3.
O=c1c2cc(N3CCOCC3)ccc2[nH]c(=S)n1Cc1ccccn1 was read as FPRL1 binder -2 and FPR ligand -6.
Screening CCOC(=O)C(NC(=O)Nc1ccccc1)(OCC)C(F)(F)F (configuration not stated) returned VCAM-1 imaging inactive, FPRL1 binder 4, VCAM-1 down inactive, VCAM-1 up imaging inactive and FPR ligand 9.
Screening Cc1oc(-c2cccc(Cl)c2)nc1CN1CCC(C(=O)NCCCN2CCCC2=O)CC1 returned FPRL1 binder -3 and FPR ligand -11.
For CCCS(=O)(=O)N1CCC(C(=O)N2CCc3ccccc3C2)CC1 the results were FPRL1 binder -9 and FPR ligand -10.
`CCOC(=O)COc1ccc2c(c1)C(=O)CC1(CCN(C(C)=O)CC1)O2` gave FPRL1 binder 4 and FPR ligand 2.
For CC(=O)N1CCc2cc(S(=O)(=O)NCCC(=O)N3CCN(c4ccccn4)CC3)ccc21 the results were FPRL1 binder 2 and FPR ligand 10.
Screening COC(=O)c1cc2occc2n1CC(=O)Nc1ccc(OC)c(OC)c1 returned FPRL1 binder -1 and FPR ligand 4.
`CN1CCCc2cc(C#N)c(=O)[nH]c21` gave VCAM-1 imaging inactive, FPRL1 binder -3, VCAM-1 down inactive, VCAM-1 up imaging inactive and FPR ligand 0.
For O=C1CC(c2ccccc2)Cc2nc(N3CCc4ccccc43)ncc21 (configuration not stated) the results were VCAM-1 imaging inactive, FPRL1 binder -2, VCAM-1 down inactive, VCAM-1 up imaging inactive and FPR ligand -3.
Screening CCCOc1ccc(N2CC(C(=O)Nc3ccccc3OC)CC2=O)cc1 (configuration not stated) returned FPRL1 binder -6 and FPR ligand -3.
COc1ccc(C2Nc3ccccc3C(=O)N2O)cc1OC (configuration not stated) was read as FPRL1 binder 1 and FPR ligand 1.
Screening CC(C)CN(CCNC(=O)CC1Oc2ccccc2NC1=O)CC(C)C (configuration not stated) returned FPRL1 binder 0 and FPR ligand -3.
For Cc1ccccc1CN1CCN(CC(=O)NCc2ccccc2)C1=O the results were VCAM-1 imaging inactive, FPRL1 binder -1, VCAM-1 down inactive, VCAM-1 up imaging inactive and FPR ligand 1.
`Cc1ccc(NC(=O)NCCN2C(=O)C3C4C=CC(C4)C3C2=O)cc1` (configuration not stated) gave FPRL1 binder 2 and FPR ligand 2.
For CN(C)c1nc(N)nc(N(c2ccccc2)c2ccccc2)n1 the results were FPRL1 binder 10 and FPR ligand -7.
Screening Cc1ccccc1N1CC(c2nc3ccccc3[nH]2)CC1=O (configuration not stated) returned VCAM-1 imaging inactive, FPRL1 binder 6, VCAM-1 down inactive, VCAM-1 up imaging inactive and FPR ligand -2.
Screening O=C(O)C1CCN(Cc2cnn(-c3ccccc3)c2-n2cccc2)CC1 returned FPRL1 binder 1 and FPR ligand -12.
For COc1cc(NC(=O)c2cccs2)cc(OC)c1 the results were VCAM-1 imaging inactive, FPRL1 binder -3, VCAM-1 down inactive, VCAM-1 up imaging inactive and FPR ligand 0.
`O=C(Nc1cccc(F)c1)c1cccnc1N1CCOCC1` gave FPRL1 binder 0 and FPR ligand 2.
Screening Cc1ccc(C2(C(F)(F)F)NC(=O)N3CCN=C3S2)cc1 (configuration not stated) returned FPRL1 binder -4 and FPR ligand -5.
CCCS(=O)(=O)N1CCCC(C(=O)NCC2CCCO2)C1 (configuration not stated) was read as FPRL1 binder 16 and FPR ligand 18.
For CN1C(=O)c2ccccc2C(C(=O)O)C1c1cccc(F)c1 (configuration not stated) the results were FPRL1 binder -13 and FPR ligand -11.
`COCCNC(=O)C1CC(=O)N(C2CCCCC2)C1` (configuration not stated) gave FPRL1 binder 12 and FPR ligand -1.
Screening O=C(NCCCN1CCCCC1)C1(S(=O)(=O)c2ccc(Cl)cc2)CC1 returned FPRL1 binder 4 and FPR ligand -6.
`COc1ccc(OC)c(N(CC(=O)N2CCN(c3cc(Cl)ccc3C)CC2)S(C)(=O)=O)c1` gave VCAM-1 imaging inactive, FPRL1 binder -6, VCAM-1 down inactive, VCAM-1 up imaging inactive and FPR ligand 1.
`O=c1cc(NCc2ccc3c(c2)OCO3)[nH]c(=O)n1-c1ccc(Cl)cc1` gave FPRL1 binder -6 and FPR ligand 0.
Screening CCOC(=O)CSc1nc2cc(C(=O)NCc3ccco3)ccc2c(=O)n1-c1ccc(F)cc1 returned VCAM-1 imaging inactive, FPRL1 binder 3, VCAM-1 down inactive, VCAM-1 up imaging inactive and FPR ligand -3.
Screening CC(C)=CCc1c(C)nc2ccccc2c1C(=O)O returned FPRL1 binder 2 and FPR ligand 5.
CCOc1ccccc1CNC(=O)C1CCC(=O)N1C(C)C (configuration not stated) was read as FPRL1 binder 1 and FPR ligand -3.
Screening CCOC(=O)C(C(C)=O)c1nc(C)nc2c1nnn2Cc1ccccc1Cl (configuration not stated) returned VCAM-1 imaging inactive, FPRL1 binder 1, VCAM-1 down inactive, VCAM-1 up imaging inactive and FPR ligand -6.
CCc1cccc(NC2c3ccccc3C(=O)N2c2cccnc2)c1 (configuration not stated) was read as FPRL1 binder 5 and FPR ligand -1.

Reprinted at random: 2 entries already listed, in no set order.
For COc1cc(NC(=O)c2cccs2)cc(OC)c1 the results were VCAM-1 imaging inactive, FPRL1 binder -3, VCAM-1 down inactive, VCAM-1 up imaging inactive and FPR ligand 0.
`COCCNC(=O)C1CC(=O)N(C2CCCCC2)C1` (configuration not stated) gave FPRL1 binder 12 and FPR ligand -1.

Additional entries:
CCOC(=O)N1CCC(Nc2c(N3CCN(c4cc(Cl)ccc4C)CC3)c(=O)c2=O)CC1 was read as FPRL1 binder -1 and FPR ligand 7.
Screening COc1ccc(NC(=O)CN(C)S(=O)(=O)c2cccs2)cc1 returned FPRL1 binder 4 and FPR ligand 3.
Screening COCCn1nnnc1CN1CCC(Cc2ccccc2)CC1 returned VCAM-1 imaging inactive, FPRL1 binder -6, VCAM-1 down inactive, VCAM-1 up imaging inactive and FPR ligand -1.
For O=C(CCC1COc2ccccc2O1)NCC1COc2ccccc2O1 (configuration not stated) the results were VCAM-1 imaging inactive, FPRL1 binder -1, VCAM-1 down inactive, VCAM-1 up imaging inactive and FPR ligand -6.
For COc1ccc(-c2noc(CCC(=O)N3CCN(c4cc(C)ccc4C)CC3)n2)cc1 the results were FPRL1 binder -3 and FPR ligand -5.

Some of these compounds in order of SMILES length, highest first.
For C=CCn1cc(C(=O)N2CCN(C)CC2)c(=O)c2cc(S(=O)(=O)N3CCCC3)ccc21 the results were FPRL1 binder 7 and FPR ligand -8.
Screening COC(=O)c1cc2occc2n1CC(=O)Nc1ccc(OC)c(OC)c1 returned FPRL1 binder -1 and FPR ligand 4.
Screening COc1ccc(S(=O)(=O)n2ccnc2)c2cccnc12 returned VCAM-1 imaging inactive, FPRL1 binder 4, VCAM-1 down inactive, VCAM-1 up imaging inactive and FPR ligand -6.
COc1ccc(C2Nc3ccccc3C(=O)N2O)cc1OC (configuration not stated) was read as FPRL1 binder 1 and FPR ligand 1.
For CCCCn1c2c(c3ccccc31)CCc1nonc1-2 the results were VCAM-1 imaging inactive, FPRL1 binder 0, VCAM-1 down inactive, VCAM-1 up imaging inactive and FPR ligand -8.
